Screening data: PubChem BioAssay, National Center for Advancing Translational Sciences (NCATS)
Vaccinia mCherry: inhibitors of vaccinia virus infection (mCherry reporter signal). Vaccinia virus mCherry reporter infection, fluorescence; about a quarter of the inactives have no number. Potency, µM (top dose mostly 36.5 µM), for inactives: at the top dose activity change, negative = inhibition, most hits filed as inhibitors. actives 0.63% (n = 310,000). AID 720579; active = well fitted inhibition curve with a large enough effect; inconclusive = small, poorly fitted or top-dose-only effect; inactive = no such curve, though single readings can be large or run the other way; tested in A549 cells; further: nearly all actives have a fitted effect of over 35% in size; inactives centre near -10
Vaccinia Venus: inhibitors of vaccinia virus (Venus reporter). Vaccinia virus Venus reporter expression, fluorescence. Potency, µM (highest dose often 36.5 µM), inactives show top-dose activity change, negative = inhibition, hits mostly inhibitors. actives 0.46% (n = 330,000). AID 720580; active means well fitted inhibition curve with a large enough effect; inconclusive means small, poorly fitted or top-dose-only effect; inactive means no such curve, though single readings can be large or run the other way; tested in A549 cells; further: nearly all actives have a fitted effect of over 30% in size; inactives centre near -10
Starred values were filed as active, the others as inactive; i = inactive; ? = inconclusive; · = no result given; [ ] = another dose, or the depositor's remark. On the % scale 0 is the no-effect control and ±100 the full control effect; potency means the concentration at half of the fitted maximal effect. Random draw from the library. About 0.88% of those tested had a hit in this group.

SMILES	Vaccinia mCherry	Vaccinia Venus
C#CC(C)(CC)NC(=O)Cn1nnc(-c2ccc(OCc3ccccc3Cl)cc2)n1 (centres undefined)	-12.7%	-19.9%
CCOC(=O)c1nn(-c2cccc(C)c2)c2nc(-c3ccccc3)c(C#N)c(=O)n12	-10.1%	-1.4%
COCCN(C(=O)/C=C/c1ccccc1)c1nnc(-c2cccnc2)s1	-9.4%	-1.8%
Cn1nc(-c2ccc(Cl)cc2)c2cc(C(=O)N3CCCC3)sc21	-17.7%	-15.6%
O=S(=O)(NC1CCCCC1)c1cccc2nsnc12	-13.8%	-19.9%
O=C(Cn1cnc2scc(-c3ccc(F)cc3)c2c1=O)NCC(c1ccco1)N1CCCC1 (centres undefined)	-2.2%	-16.3%
Cc1ccc2nc(-c3ccc(NC(=O)CSc4ccccc4)cc3)[nH]c2c1	-18.2%	-25.7%
CCOCCCNC(=S)N1CCC(NC(=O)c2ccco2)CC1	i	-9.1%
Cc1ccc(N=Cc2nc(-c3ccco3)oc2O)cc1	-12.7%	-6.6%
C[C@@H]1CC(=O)[C@H]2CC(CO)=CCC[C@@H]2[C@@]1(C)CC/C(=C/CO)CO	0.1%	-2.4%
CCOC(=O)Cn1c(=NC(=O)CSC(C)=O)sc2cc(F)ccc21	-0.5%	11.3%
Cc1cc2n(n1)CCCN2C(=O)Nc1ccccc1C(F)(F)F	-13.4%	-9.5%
CCC(Sc1nnc(C)n2c1cc1sccc12)C(=O)Nc1ccccc1F (centres undefined)	-14.5%	-4.1%
CCN(C(=O)/C=C/c1ccc(OC)cc1)C1CCS(=O)(=O)C1 (centres undefined)	-10.8%	-5.7%
C#CCCC[C@@H]1OC(=O)CNC(=O)C([C@@H](C)CC)NC(=O)[C@@H]2CCCN2C(=O)C([C@@H](C)CC)OC(=O)[C@H](Cc2ccccc2)N(C)C(=O)[C@H](C(C)C)NC(=O)C1(C)C (some centres undefined)	?	?
CC(NC(=O)c1ccccc1SCC(=O)N1CCCC1)c1ccccc1 (centres undefined)	i	-2.4%
COc1ccc(Cc2nnc(SC)[nH]c2=O)cc1OC	i	-15.3%
CCOc1ccc(/C=N/Nc2cc(=O)n(C)c(=O)n2C)cc1	-3.8%	2.5%
COc1ccc(NC(=O)CSc2nccn2Cc2ccc(F)cc2)c(OC)c1	-6.7%	-19.7%
CCOc1ccc(CCNC(=O)c2ccccc2OCc2c(C)noc2C)cc1OCC	-21.2%	-16.0%
CC1Cc2ccccc2N1C(=O)Cn1nnc(-c2ccccc2NC(=O)C2CCC2)n1 (centres undefined)	-15.1%	-18.4%
CCOC(=O)c1ccccc1NC(=O)COC(=O)CCC(=O)c1ccc(C)cc1	i	-10.9%
O=C(NC1CCS(=O)(=O)C1)C1CCCC1 (centres undefined)	-13.2%	-3.5%
CN(C)CC1CSCCC1(O)c1cccc(Cl)c1 (centres undefined)	-11.8%	-6.9%
CC(C)(C)n1nnnc1C(c1ccccc1)N1CCN(c2ccc(C(F)(F)F)cn2)CC1 (centres undefined)	15.2%	-8.2%
COc1ccccc1Cn1c(=S)[nH]c2cc(C(=O)NCCCN3CCOCC3)ccc2c1=O	i[7.34 µM]	1.7%[7.34 µM]
CC(=O)c1ccc(N2C(=O)NC3(CCCCC3)C2=O)cc1	·	0.7%
O=[N+]([O-])c1ccc(N/N=C/c2ccc[nH]2)cc1	5.01µM*	?
Cc1ccc(S(=O)(=O)N(CC(=O)NCC2CCCO2)C2CCCCC2)cc1 (centres undefined)	-6.0%	-19.7%
Cc1nc(OCc2ccccc2)c2ccccc2n1	·	-16.1%
COC(=O)C1=C(c2ccccc2)C[C@@H]2CC[C@H]1N2C(=O)NC1CCCCC1	i	-11.2%
Nc1nnc(COc2cccc(C(F)(F)F)c2)s1	·	-22.8%
CCc1ccc(CN(C(=O)Nc2cccc(Cl)c2)c2ccccn2)cc1	-12.6%	-9.6%
COc1ccc(C(C(=O)Nc2c(C)cccc2C)n2c(=O)c(-c3ccco3)nc3ccccc32)cc1 (centres undefined)	?	-10.6%
Nc1ccc2c(c1)N=[N+]([O-])c1cc(N)ccc1C2	-4.7%	-13.0%
CC(C)CNC(=O)C1(C)CCCN1C(=O)c1ccncc1 (centres undefined)	32.9%[activator]	6.5%
CC(C(=O)Nc1sccc1C(N)=O)N1C(=O)C2CC=CCC2C1=O (centres undefined)	·	-16.6%
O=C1c2ccc([N+](=O)[O-])cc2C(=O)N1c1c[nH]c(=O)[nH]c1=O	i	-4.3%
C/C(=N\NC(=O)C1CC1)c1ccc2c(c1)OCCO2	-11.6%	-9.0%
O=C(NCc1ccco1)c1ccc2sc([C@H]3C[C@H](O)[C@@H](CO)O3)nc2c1	i	-19.6%
CC(C)CN1CCN(Cc2nc3ccccc3s2)CC1CCO (centres undefined)	-13.1%	-0.2%
COC(=O)CCC(=O)c1oc2ccc(Cl)cc2c1NC(=O)CCCN1C(=O)c2ccccc2C1=O	-8.3%	5.4%
CCOc1ccc(C(C#N)N2CCOCC2)cc1OC (centres undefined)	-5.0%	-0.6%
COc1ccc(Nc2nc3ccccc3nc2-n2nc(C)cc2C)cc1	·	-3.1%
Cc1nn(-c2ccccc2)c(C)c1NC(=O)COC(=O)/C=C/c1ccccc1	i	-16.5%
CCCSc1nc(-c2ccccc2)[nH]c1S(=O)(=O)c1ccc(C)cc1	-16.2%	-17.1%
COc1ccc(C(C)=O)cc1CSc1ncccn1	-10.5%	-12.8%
C#CC(CC)(CC)NC(=O)c1nn(-c2ccccc2Cl)c(C)cc1=O	0.5%	-8.0%
COc1ccc(CCNC(=O)c2ccc3c(c2)N(Cc2ccccc2)CCS3)cc1OC	3.1%[7.34 µM]	-2.8%[7.34 µM]
CCOC(=O)CNC(=O)CSc1ncnc2c1cnn2-c1ccc(Cl)cc1	-14.2%	0.0%
COc1ccc(C#Cc2ccc3c(c2)O[C@H](CN(C)S(=O)(=O)c2ccccc2F)[C@H](C)CN([C@H](C)CO)S3(=O)=O)cc1	-11.1%	-21.8%
Nc1ccc(C2(c3ccc(N)cc3)c3ccccc3-c3ccccc32)cc1	?	?
O=C(NCc1ccc(N2CCCC2=O)cc1)c1ccc(F)cc1	1.7%	1.0%
COc1ccc(N2CC(NC(=O)C3CC3)CC2=O)cc1OC (centres undefined)	3.8%	4.7%
O=C(O)c1cccnc1C(=O)N1CCc2c([nH]c3ccccc23)C1C(F)(F)F (centres undefined)	-13.5%	-7.6%
Cc1cc(C)cc(N2C(=O)CSC23C(=O)N(CC(N)=O)c2ccccc23)c1 (centres undefined)	-1.6%	-0.4%
O=C(Nc1ccccc1Br)N1CCC(CN2CCCC2)CC1	-5.2%	-11.9%
CCOc1ccc(C(=O)COC(=O)C2CCN(c3ccc(C(F)(F)F)cn3)CC2)cc1	i	-17.2%
Cc1c2cnn(CC(=O)NCc3ccc(F)cc3)c(=O)c2c(C)n1Cc1cccc(Cl)c1	-14.9%	-23.6%
COc1ccc2cc(C(=O)N3CCOCC3)sc(=O)c2c1OC	·	-16.3%
Continued.
SMILES	Vaccinia mCherry	Vaccinia Venus
c1ccc(Cc2nc3ccccc3o2)cc1	-10.6%	3.0%
CCOc1ccc(OCC)c(NS(=O)(=O)c2cc(-c3onc(C)c3C)ccc2OC)c1	-3.5%	-8.4%
O=C(Cc1n[nH]c(=O)c2ccccc12)OCC(=O)c1ccc(F)cc1	-8.9%	1.5%
O=C(CSc1ccc(-c2ccc(Cl)cc2)nn1)N1CCCc2ccccc21	-24.0%	-10.1%
C=CCC1C(=O)NC(=S)NC1=O	i	2.2%
CCO[C@H]1OC(C(=O)NCc2ccccc2)=C[C@@H](c2ccc(Br)cc2)[C@@H]1CCCO	-34.5%	?
CCCCN(C)CCC(=O)Nc1ccc(C)cc1	i	-8.0%
Cc1ccccc1NC(=O)Cc1nc(COC(=O)c2cc([N+](=O)[O-])ccc2N)cs1	-21.6%	-10.0%
COc1ccc(-c2nc(CSc3nncn4c3cc3sccc34)c(C)o2)cc1OC	-17.8%	-9.5%
COC(=O)/C=C1/SC(=NC(=O)c2cccc([N+](=O)[O-])c2)NC1=O	-1.1%	-3.7%
CC(C(=O)NCCCn1ccnc1)(c1ccccc1)c1ccccc1	i	-6.7%
O=C(CSc1nc(=O)n(CCN2CCOCC2)c2c1CCC2)Nc1ccc(Cl)c(Cl)c1	-17.3%[7.34 µM]	-15.2%[7.34 µM]
CC1CCCN(C(=O)CSc2c3c(nc4cc(Cl)ccc24)CCCC3)C1 (centres undefined)	-5.3%	-14.6%
CN1CCN(C(=O)c2cc3ccccc3cc2O)CC1	-0.1%	-15.3%
Cc1cccc(NC(=O)c2ccc(NS(=O)(=O)c3c(C)noc3C)cc2)c1	-9.0%	2.0%
CC1NC(=O)N(C)C2NC(=O)N(C)C(c3ccccc3)C12 (centres undefined)	-12.7%[1.46 µM]	-3.4%
Cc1nn(CCC(=O)NCc2ccc(N(C)C)cc2)c(=O)c2nn(-c3ccccc3)c(C)c12	-12.3%	-5.5%
CCOC(=O)[C@]12CCCC=C1N(Cc1ccccc1)C(=O)[C@H](CC(=O)NCC1CCCCC1)C2	-25.6%	-12.0%
CC(C)c1nnc(NC(=O)CC(=O)Nc2ccccc2C(=O)O)s1	·	-17.8%
CC(=O)N1CCN(C(=O)c2cccc(S(=O)(=O)NCc3ccccc3)c2)CC1	-19.2%	-15.8%
CC(NCc1ccc(F)cc1)C(=O)Nc1cc(S(=O)(=O)N2CCCCC2)ccc1Cl (centres undefined)	-5.4%	-10.3%
Cc1ccc(S(=O)(=O)[N-]c2nc3ccccc3nc2-n2cc[n+](Cc3ccccc3)c2)cc1	?	-25.5%
Cn1cc(Br)c(C(=O)Nc2sc3c(c2C(N)=O)CCC3)n1	·	-6.7%
CN(C)CCCNCC(=O)Nc1ccc(Cl)cc1C(=O)c1ccccc1	-8.3%	-9.5%
CCC1Nc2ncnc(N3CCc4ccccc4C3)c2N(Cc2ccc(Br)cc2)C1=O (centres undefined)	-24.0%	-25.8%
O=C(CN1C(=O)c2ccccc2C1=O)NCC(=O)OCC(=O)c1cccc([N+](=O)[O-])c1	i	-7.1%
CC1(C)CC(=O)C(C=Nc2ccccc2Sc2ccccc2)=C(O)C1	·	-25.1%
COc1ccccc1C(C)NC(=O)Cc1ccc(S(=O)(=O)N2CCOCC2)s1 (centres undefined)	-18.2%	-9.9%
COc1ccc(OCC(=O)NCCCCCCNC(=O)COc2ccc(OC)cc2)cc1	7.6%	14.3%
CC12CCCCC1N(O)C(=O)C(=O)N2O (centres undefined)	-1.8%	17.3%
CCC(=O)N1CCc2cc(S(=O)(=O)NCCCN3CCN(Cc4ccccc4)CC3)ccc21	-10.3%	5.3%
Cc1ccc(NC(=O)CCCn2c(=O)c3cccn3c3ccccc32)cc1Cl	-8.0%	-11.2%
CN(C(=O)c1cc2c(Cl)nc3ccccc3c2s1)c1cccc(C(F)(F)F)c1	4.5%	0.5%
Cc1cc(NC(=O)CCC(=O)N(c2ccc(F)cc2)C(C(=O)NC2CCCC2)c2ccncc2)no1 (centres undefined)	-3.9%	-4.9%
Cc1[nH]c2ccccc2c1/C=N/NS(=O)(=O)c1ccccc1	0.6%	-3.2%
O=c1c2ccccc2nc2n1CCCCN2	i	-13.2%
Cc1cccc(N2CN(S(=O)(=O)c3cccc([N+](=O)[O-])c3)c3nc4ccccc4nc32)c1	-19.5%	-13.4%
CC1CCC2C(=O)N(c3cccc(C(=O)Nc4ccccc4Cl)c3)C(=O)C2C1 (centres undefined)	-11.1%	-7.1%
COc1ccc(NC(=O)CSc2nnc(-c3ccco3)n2N)cc1Cl	i[7.34 µM]	-8.6%[7.34 µM]
CCOC(=O)CSc1nnc(CSc2nc(N)c3c(C)c(C)sc3n2)n1-c1ccccc1	i	-14.5%
Cc1c(-c2cccc(NC(=O)c3cccs3)c2)nc2ncccn12	i	-17.0%
Cc1nn(-c2ccccc2)c(Cl)c1/C=N/NC(=O)c1ccccc1NS(=O)(=O)c1cccs1	-7.1%	-15.8%
CCCCC[C@H](O)/C=C/C=C\CCCCCCCC(=O)O	i[0.293 µM]	-14.7%[0.293 µM]
OC[C@@H](O)[C@@H](O)CO	5.0%	-2.4%
COCCNC(=O)c1cc2ncc(Br)cn2n1	i	-14.8%
O=[N+]([O-])c1ccc(S(=O)(=O)Nc2ccccn2)cc1	-10.8%	9.2%
Cc1ccc(-n2ncc3c(SCC(=O)NNC(=O)C(C)C)ncnc32)cc1	-5.0%	-12.5%
CC(C)OC(=O)N(C)C[C@H]1OCc2cn(nn2)CCCC(=O)N([C@H](C)CO)C[C@@H]1C	i	-2.0%
CCCOCC1CC2(SC(=Nc3ccc(C)cc3)NC2=O)C(=O)O1 (centres undefined)	-13.9%	-5.8%
O=C1CC(SCCc2nc3ccccc3[nH]2)C(=O)N1c1ccc(F)c(Cl)c1 (centres undefined)	·	-12.7%
